A1 inh – caspase 3/7 activation in MEF A1-2A-BIM cells, primary screen, A1 inhibitor project, cell-based, luminescence, HTS; Caspase-Glo 3/7 luminescence, 3 h; percent of clofoctol response, vehicle zero; hit rate 0.066% among 330,000; caspase activation, % (no concentration beside the values);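 active = over half of replicate activation scores above 10%, or exactly half above 10 with the replicate mean above 10; inconclusive = replicate mean below 10 yet half the replicates above 10; inactive = over half of replicates below 10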;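 also: wells of about 30 µL received 50 nL stock; many hits fall short of the cut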
RanGTP-Impb inh – inhibitors of RanGTP-importin-beta interaction, primary screen, biochemical, FRET, CFP-Ran, YFP-importin-beta, homogeneous; hit rate 1.1% among 300,000; inhibition, % (no concentration beside the values); cell-free CFP-Ran/YFP-importin-beta FRET ratio;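 active = most replicates above 15%; inconclusive = exactly half above 15%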;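 also: 0% = DMSO wells and 100% = Ran loaded with GDP instead of GTP; wells of about 40 µL received 100 nL stock; the first replicate is given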
Calb FLC – C. albicans growth inhibition with fluconazole, primary screen, CaCi-2 strain, Alamar Blue fluorescence | C. albicans CaCi-2 (fluconazole-resistant clinical isolate) + fluconazole, 48 h | growth inhibition, % (test concentration not listed) | hit rate 0.57% among 300,000 | AID 1979, 2009;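 active = most replicates above 75%; inconclusive = exactly half above 75%; inactive = most below 75%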;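 also: all wells also contain fluconazole at 8 µg/ml as a sub-toxic cotreatment; 0% = median of DMSO wells and 100% = median of geldanamycin control wells; wells of about 8 µL received 7.5 nL stock; the first replicate is given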
AF4-AF9 inh – inhibitors of AF4 peptide binding to AF9, primary screen, biochemical, AlphaScreen, biotin-AF4 peptide, FLAG-AF9, single point | hit rate 0.47% among 350,000 | AID 651704, 2012 | Protein AF-9 (Homo sapiens), P42568 | inhibition, % at 10 µM;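 active = every replicate reaching a set inhibition limit, whatever the replicate mean, cut at about 25% in these data; inconclusive = mean inhibition reaches that limit but some replicates miss it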;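 also: 0% = plate neutral control median and 100% = total signal loss; the record names both 10 and 1 µM as test concentration; the first replicate is given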
LANA-H2A inh – blockers of LANA interaction with H2A/H2B – biochemical, FP readout, HTS, primary screen. Protein LANA1 (Human herpesvirus 8 type P (isolate GK18)), Q9QR71. cell-free LANA-H2A/H2B peptide, fluorescence polarization. inhibition, % (test concentration not listed). hit rate 0.6% among 320,000. AID 2629, 2010; in the data active = inhibition mostly above about 10%, no sharp cut-off; inactive = mostly below about 6.7%;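 also: stock transfer was 7.5 nL into about 10 µL; 0% = median of vehicle wells and 100% = median of positive control wells; one replicate is shown; the record names a cut of 25% in any replicate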
Target sequence (Q9QR71 whole entry, looked up): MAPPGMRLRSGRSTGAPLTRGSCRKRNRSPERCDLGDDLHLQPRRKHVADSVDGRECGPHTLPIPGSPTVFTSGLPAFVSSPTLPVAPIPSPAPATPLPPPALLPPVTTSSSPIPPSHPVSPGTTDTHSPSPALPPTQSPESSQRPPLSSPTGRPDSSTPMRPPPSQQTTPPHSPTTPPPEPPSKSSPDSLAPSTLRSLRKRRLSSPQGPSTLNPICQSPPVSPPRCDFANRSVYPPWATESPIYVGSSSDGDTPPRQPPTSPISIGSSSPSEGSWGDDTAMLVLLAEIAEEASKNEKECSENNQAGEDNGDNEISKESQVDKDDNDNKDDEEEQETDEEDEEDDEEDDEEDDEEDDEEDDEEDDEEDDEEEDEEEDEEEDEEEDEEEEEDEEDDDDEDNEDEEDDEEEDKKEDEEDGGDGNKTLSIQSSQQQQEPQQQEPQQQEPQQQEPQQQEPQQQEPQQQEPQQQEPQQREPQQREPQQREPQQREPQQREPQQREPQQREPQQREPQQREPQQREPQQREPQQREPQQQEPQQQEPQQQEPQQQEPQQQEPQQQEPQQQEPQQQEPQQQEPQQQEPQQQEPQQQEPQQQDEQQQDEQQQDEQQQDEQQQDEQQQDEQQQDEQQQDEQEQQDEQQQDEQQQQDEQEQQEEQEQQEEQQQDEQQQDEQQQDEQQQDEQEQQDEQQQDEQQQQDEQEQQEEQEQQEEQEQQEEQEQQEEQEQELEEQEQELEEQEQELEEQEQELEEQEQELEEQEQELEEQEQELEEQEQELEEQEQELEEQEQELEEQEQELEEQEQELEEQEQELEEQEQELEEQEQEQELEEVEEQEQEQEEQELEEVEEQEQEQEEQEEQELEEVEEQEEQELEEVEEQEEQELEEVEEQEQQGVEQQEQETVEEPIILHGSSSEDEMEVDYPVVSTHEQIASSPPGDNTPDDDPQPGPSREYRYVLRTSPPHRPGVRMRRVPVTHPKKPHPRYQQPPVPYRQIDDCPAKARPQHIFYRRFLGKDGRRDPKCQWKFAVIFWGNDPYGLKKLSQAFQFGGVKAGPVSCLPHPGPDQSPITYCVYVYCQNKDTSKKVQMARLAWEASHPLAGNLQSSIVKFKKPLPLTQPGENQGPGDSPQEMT
T cruzi repl – inhibitors of intracellular T. cruzi growth, primary screen, luminescence, NIH3T3 host cells; T. cruzi beta-gal in NIH3T3, 90 h; inhibition, % (concentration not given with the values); hit rate 1.4% among 300,000; AID 1885, 2009;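 active = mean inhibition across valid replicates above about 55%, limit read from the data; inconclusive = mean below that limit but half or more replicates reach it; inactive = mean below it, under half of replicates reach it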;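 also: signal also drops with host cell toxicity which is not excluded here; 0% = plate median of DMSO wells and 100% = zero luminescence signal; higher percent means less beta-gal luminescence so fewer parasites; stock transfer was 50 nL into about 50 µL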
Vif A3G – inhibitors of Vif binding to APOBEC3G peptide, primary screen, biochemical, TR-FRET, GST-Vif 1-94, biotin-A3G peptide, dose response retest (AID 1117319) | Virion infectivity factor (Human immunodeficiency virus type 1 group M subtype B (isolate … | TR-FRET GST-Vif / biotin-A3G peptide binding; higher % means a stronger effect; test concentration not given here; strong numbers were not always called active | one-dose inhibition, %; IC50 in µM for titrated hits | hit rate 0.57% among 260,000;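 active = above the screen mean plus three standard deviations and confirmed in dose response; inconclusive = results disagree or hit not tested in dose response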;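 also: Vif residues 1-94 fused to GST binding biotinylated APOBEC3G peptide 110-148; 0% = full assay without inhibitor and 100% = GST in place of GST-Vif; retest series ran down from 100 µM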
Beta apoptosis – inhibitors of cytokine-induced beta cell apoptosis, primary screen, luminescence. INS-1E cytokine-induced death, ATP luminescence, 48 h; percent of positive-control rescue, neutral wells zero. protection from apoptosis, % (test concentration not listed). hit rate 0.8% among 300,000. AID 435005, 2010;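 active = all replicates at 75% or more, or half of them and the mean; inconclusive = half reach 75% but not the mean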;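 also: 0% = cytokine-treated negative control wells and 100% = positive control rescue; higher means more ATP so stronger rescue from cytokine killing; wells of about 40 µL received 100 nL stock; the first replicate is given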
* marks the source's active call; other numbers are inactive results; ? = inconclusive; · = not tested or not shown.

SMILES	A1 inh	RanGTP-Impb inh	Calb FLC	AF4-AF9 inh	LANA-H2A inh	T cruzi repl	Vif A3G	Beta apoptosis
O=C(O)COc1ccccc1/C=N/NC(=O)CSc1nc2ccccc2c(=O)n1-c1ccc(Cl)cc1	0.0	-1.1	-4	-14	-0.4	-1	22%	-9
COc1ccccc1N(Cc1ccccc1)S(=O)(=O)c1cccc(C(=O)O)c1	0.7	7.8	14	-8.2	1.3	-9	-1%	-4
COc1ccc(NC(=S)NCc2cccnc2)cc1OC	-0.1	0.2	10	1.3	-0.5	6	3%	-18
CC(C)(CCl)C(=O)Nc1ccc(Sc2ccc(F)cc2)cc1	0.5	-1.8	-19	·	-1.2	44	-4%	6
Cc1[nH]n2c(=O)cc(Cc3ccccc3)nc2c1C#N	-1.9	-23	2	·	0.3	-1	0%	-4
COc1cc(C)c(COc2ncnc3ccccc23)cc1OC	0.4	5.8	14	-11	2.6	-11	·	-1
COc1cccc(CN=CC2=C(O)CC(C)(C)CC2=O)c1OC	-0.5	2.4	2	0.0	-1.1	-6	2%	-1
CCCc1nnc(NC(=O)C2CCN(C(=O)C3CC(=O)N(c4ccc(C)cc4)C3)CC2)s1 (stereo not drawn)	0.4	4.5	-2	-2.4	1.9	1	·	-3
CSc1nc2sc3c(c2c(=O)n1CC(C)C)CC(C)(C)OC3	-0.8	-0.3	-3	-2.8	1.5	-28	-4%	-1
CC(C)OC(=O)CSc1nnc2n1C(C)(C)Cc1ccccc1-2	0.8	-2.6	2	·	6.9	-7	21%	-1
CCOC(=O)c1cnn(-c2ccccc2)c1-n1cccc1C(=O)C(=O)Nc1ccccc1C(F)(F)F	0.1	-1.5	7	·	6.5	23	-1%	3
O=C(NCCO)C(=O)Nc1cc2c3c(c1)CCC(=O)N3CCC2	0.3	-13	-10	2.1	7.2	-25	·	2
CC(CCc1ccccc1)NC(=O)CCC(=O)N1CCC(C(N)=O)CC1 (stereo not drawn)	-0.1	?	-5	0.8	-5.1	-16	-6%	2
O=C(CN1CCC(C(=O)c2ccc3c(c2)OCCO3)CC1)NC1CCCC1	0.1	-0.7	-4	·	2.4	-14	0%	-5
CN(C)c1ccc(/C=N/NC(=O)c2ccc(-n3cnnn3)cc2)cc1	0.4	·	·	1.6	0.8	·	12%	0

Next section, starting with the last 6 of the part before.
SMILES	A1 inh	RanGTP-Impb inh	Calb FLC	AF4-AF9 inh	LANA-H2A inh	T cruzi repl	Vif A3G	Beta apoptosis
CC(C)OC(=O)CSc1nnc2n1C(C)(C)Cc1ccccc1-2	0.8	-2.6	2	·	6.9	-7	21%	-1
CCOC(=O)c1cnn(-c2ccccc2)c1-n1cccc1C(=O)C(=O)Nc1ccccc1C(F)(F)F	0.1	-1.5	7	·	6.5	23	-1%	3
O=C(NCCO)C(=O)Nc1cc2c3c(c1)CCC(=O)N3CCC2	0.3	-13	-10	2.1	7.2	-25	·	2
CC(CCc1ccccc1)NC(=O)CCC(=O)N1CCC(C(N)=O)CC1 (stereo not drawn)	-0.1	?	-5	0.8	-5.1	-16	-6%	2
O=C(CN1CCC(C(=O)c2ccc3c(c2)OCCO3)CC1)NC1CCCC1	0.1	-0.7	-4	·	2.4	-14	0%	-5
CN(C)c1ccc(/C=N/NC(=O)c2ccc(-n3cnnn3)cc2)cc1	0.4	·	·	1.6	0.8	·	12%	0
CCOC(=O)C1=C(C)N(C)C(=O)C1CC(=O)O (stereo not drawn)	3.2	2.6	-5	·	0.3	-26	-2%	-4
COC(CNC(=O)Cn1ncc2ccsc2c1=O)OC	0.3	?	-5	·	2.5	-2	-5%	·
CCCC(C)C(=O)N(Cc1ccccc1)c1ccccn1 (stereo not drawn)	0.6	-2.5	-14	·	-12	-12	2%	-12
COc1ccc(-c2nnc(SCCC(=O)O)n2C)cc1OC	0.5	-1.6	-16	·	3.7	-4	-3%	·
O=C(Nc1ccc2c(c1)N(Cc1ccccc1)C(=O)c1ccccc1S2)NC1CC1	1.5	0.5	10	·	7.3	9	2%	-3
CC(=O)Nc1cccc(NC(=O)COc2ccc3c(c2)OCO3)c1	-0.5	-9.5	1	2.2	2.9	-5	·	1
COCCCNC(=O)C(=O)Nc1cc2c3c(c1)CCN3C(=O)CC2	1.2	1.0	-9	-9.0	-2.8	-10	3%	4
O=C(C[n+]1cc(-c2ccc(Cl)c(Cl)c2)n2c1CCC2)N1c2ccccc2Sc2ccccc21	2.1	-0.2	107*	·	1.6	55*	·	1
COC(=O)c1c(NC(=O)COC(=O)c2ccc(O)cc2)sc2c1CCCCC2	0.4	2.2	3	-1.7	3.1	44	-15%	9
CC1CCN(CCNC(=O)c2ccc(NC(=O)C3CCCO3)cc2)CC1 (stereo not drawn)	-0.2	0.7	-14	·	5.8	-6	3%	-5
COc1ccc(OC)c(C(=O)COC(=O)c2ccccc2O)c1	-0.8	-2.4	-1	·	-4.6	-7	9%	-2
O=C(CN1CCN(Cc2ccccc2)CC1)N/N=C\C=C/c1ccco1	-1.0	-4.5	42	-0.4	12*	-46	29%	-1
CC(C)(C)c1ccc(OCCC(=O)OCC(=O)Nc2ccc(N3CCOCC3)cc2)cc1	?	2.9	-4	-3.3	3.3	-6	-4%	-3
NC(=O)c1nn(CC(=O)Nc2cccc(S(=O)(=O)N3CCCC3)c2)c(=O)c2ccccc12	-0.6	·	·	-19	-1.2	·	8%	8
O=C(CSc1nc2ccccc2o1)NC(=O)NCc1ccco1	0.2	-3.9	1	·	5.7	5	-4%	-12
O=C(COC(=O)c1cc(S(=O)(=O)N2CCCCC2)ccc1N1CCOCC1)c1ccc(Cl)cc1	-0.1	-1.7	-10	8.8	0.8	33	-5%	0
Cc1nc(NN)nc(NCc2ccccc2)n1	-1.8	2.6	8	-0.6	-2.0	-5	-1%	-1
CC(=O)Oc1ccc(C(=O)O)c(OC(C)=O)c1	2.2	-0.6	-9	-0.2	-4.2	-16	9%	-5
CC[n+]1c(/C=C/c2ccc(OC)c(OC)c2)ccc2ccccc21	-0.4	-3.6	-3	0.1	-13	39	3%	-5
CNC(=O)OC(C)CNS(=O)(=O)c1ccc(C)cc1 (stereo not drawn)	1.4	-2.4	58	·	1.0	-18	0%	-2
COCCNC(=O)/C(C#N)=C/c1cccc(NC(=O)c2ccccc2Cl)c1	-3.4	-3.3	-3	·	-5.9	-29	0%	·
CC(=O)Nc1ccc2c(c1)C(=O)c1ccccc1C2=O	-3.2	-0.8	17	·	-5.7	-4	3%	9
COc1ccc(/C=C/C(=O)NCC(c2ccc(F)cc2)N2CCOCC2)cc1OC (stereo not drawn)	0.0	-2.1	-2	3.8	4.1	4	·	6
c1ccc(-n2cc(CN3CCCC3)c(-c3ccc4c(c3)OCO4)n2)cc1	0.0	0.3	-52	6.3	-5.1	6	·	2
O=C(CCOc1ccccc1)Nc1ccnn1C1CCN(Cc2ccc(CO)o2)CC1	-0.3	1.3	5	3.6	-0.5	-11	-3%	2
c1ccc(CSc2nnnn2-c2cccc3ccccc23)nc1	1.2	·	15	·	0.7	·	-6%	2
CCC(C)NC(=O)NCc1ccccc1F (stereo not drawn)	1.1	6.8	-7	0.8	-2.4	-14	?	·
O=C(CCC(=O)Nc1ccccc1Cl)NNC(=O)c1ccccc1[N+](=O)[O-]	-0.2	3.9	-2	0.2	3.7	-3	·	0
COc1ccc(S(=O)(=O)N2CCN(C(=O)C3CCCCC3)CC2)cc1	0.3	-7.0	4	-1.3	-1.8	-6	·	0
C=CCN(CC=C)C(=O)CN1C(=O)c2ccccc2C1=O	0.6	?	-8	·	-0.3	-11	18%	2
CN(C)S(=O)(=O)c1cc(NC(=O)CN2CCN(c3ccc(O)cc3)CC2)ccc1Cl	0.6	-3.1	8	-0.5	1.6	0	?	2
CCCCn1nnnc1NCc1ccc(OC)c(OC)c1	1.0	2.5	-3	3.5	-1.3	-5	4%	-2
OCC1(CCOc2ccccc2)CCN(Cc2ccc(OC(F)F)cc2)CC1	0.0	1.4	6	-2.5	1.8	2	·	-3
O=C(O)CCc1ccc(-c2cccs2)o1	-1.4	1.8	8	·	0.1	2	16%	·
Cc1ccccc1OCc1csc(N)n1	-0.7	-2.8	-31	-6.9	2.8	3	1%	-5
COc1cccc(N2C(=O)C(c3ccccc3)=C(c3nc4ccccc4s3)C2NC(C)=O)c1 (stereo not drawn)	0.1	2.5	1	·	4.0	12	-7%	8
CCCNC(=S)N1CCC(NC(=O)C23CC4CC(CC(C4)C2)C3)CC1	0.1	3.1	2	·	2.1	7	-8%	1
COc1ccc([N+](=O)[O-])cc1NC(=O)CSCc1ccccc1	0.0	?	-29	·	-4.8	5	4%	-6
Cn1cc(/C=C(\C(=O)O)C(C(=O)O)=C2CCCCC2)c2ccccc21	0.9	-0.1	13	-0.8	3.0	-12	6%	-6
O=C(N/N=C/c1ccccc1O)C(=O)Nc1ccccn1	-4.5	-2.0	-11	-5.3	2.8	-3	17%	9
Cc1ccc(C2=NN(C(=O)CSc3nnnn3C)C(c3ccco3)C2)cc1 (stereo not drawn)	2.2	·	·	-2.8	0.0	·	-19%	-3
COCCNc1ccc(-c2nn(C)c(=O)c3ccccc23)cc1[N+](=O)[O-]	-0.1	-3.2	-3	1.1	-2.3	-4	10%	-22
CSc1ccc(CNCCN2CCOCC2)cc1	-0.6	3.0	23	-2.5	-3.8	25	16%	-7
CCOC(=O)C1(Cc2ccccc2C(F)(F)F)CCN(C2CCCC2)CC1	-0.9	2.4	-13	0.4	2.1	·	-4%	12
Cc1ccc(C(=O)COC(=O)CCc2ccc(S(=O)(=O)N3CCCCC3)cc2)cc1	0.0	-2.6	6	·	0.0	-7	13%	-2
CC(=N/O)/C(C)=N\NC(=O)c1ccccn1	-4.6	2.2	4	-2.0	12	-2	·	2
Cc1cccc(C)c1NC(=O)CSc1nnc(NC(=O)CN2CCOCC2)s1	-0.5	-5.6	3	·	2.1	-28	5%	1
COc1cccc(CN2CC(C(=O)NCCN3CCOC3=O)CCC2=O)c1 (stereo not drawn)	-0.4	0.6	-11	-3.0	4.4	-10	0%	-3
O=C(CSc1nc(-c2ccc(F)cc2)cc(C(F)(F)F)n1)NCCN1CCOCC1	-0.8	1.2	-5	·	-0.8	7	-4%	0
O=C(Nc1ccc(Cl)cn1)Nc1cccs1	-3.4	3.3	-4	·	-2.1	-20	1%	-12
COc1ccc(CCNC(=O)C(NS(=O)(=O)c2cccc3nsnc23)C(C)C)cc1OC (stereo not drawn)	·	0.7	6	-15	·	-6	·	·
CCc1nnc(N/N=C/c2ccc(O)c(OC)c2)n1N	0.6	-3.7	-4	4.5	0.2	5	·	2
